Screening data: PubChem, several laboratories
MazEF act = activators of E. coli MazEF toxin-antitoxin RNase, primary screen, biochemical, fluorescence, uHTS; FAM/BHQ RNA-DNA oligo cleavage fluorescence, 5 h; activation, % at 20 µM; 350,000 tested, 0.32% active; AID 504720, 2011; in the data active means activation above about 50%
SARS 3CLpro inh = SARS-CoV 3CLpro protease inhibitors, primary screen, biochemical, quenched FRET; recombinant SARS-CoV 3CLpro, quenched FRET peptide cleavage; inhibition, % at 6 µM; 290,000 tested, 0.14% active; AID 1706, 2009; in the data active means inhibition above about 12%
TcdB inh = TcdB glycohydrolase inhibitors, primary screen, biochemical, single point, plate reader; Toxin B (Clostridioides difficile), P18177; TcdB glycohydrolase enzymatic assay; inhibition, % at 9.99 µM; 350,000 tested, 0.24% active; in the data active means inhibition above about 10%
Rv3671c inh = Rv3671c serine protease inhibitors, primary screen, biochemical, fluorescence polarization, M. tuberculosis H37Rv. 320,000 tested, 0.048% active. P9WHR9. inhibition, % at 5.96 µM; in the data active means inhibition above about 38%;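 further: extracellular domain of Rv3671c used as enzyme; 0% = enzyme with DMSO and 100% = no enzyme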
Anthrax LF inh2 = Bacillus anthracis LF protease inhibitors, primary screen, biochemical, multiplex microsphere, MLPCN library | inhibition, % at 10 µM | Lethal factor (Bacillus anthracis), P15917 | 360,000 tested, 0.12% active | multiplex microsphere protease cleavage assay; in the data active means inhibition above about 30%; further: plate controls were buffer without enzyme for full effect and enzyme alone for no effect
* marks the source's active call; other numbers are inactive results; . = not tested or not shown. Not all compounds are listed, so the mix of outcomes need not match the whole.

#1 N#Cc1ccc(OCC(O)CN2CCC(C(O)(c3ccccc3)c3ccccc3)CC2)cc1 (stereo not drawn)
#2 CCN1CCN(C(=O)c2ccc(NS(=O)(=O)c3ccccc3)cc2)CC1
#3 c1ccc(-c2ccc(-c3cn4c(n3)CCC4)cc2)cc1
#4 O=C(O)[C@@H]1CCCC[C@@H]1C(=O)N1CCc2ccccc2C1CN1C(=O)c2ccccc2C1=O (stereo partly drawn)
#5 O=C(O)c1cc(S(=O)(=O)N2CC=C(c3ccccc3)CC2)ccc1O
#6 O=S(=O)(c1ccc(F)cc1)n1cnc2ccccc21

assay / entry | 1 | 2 | 3 | 4 | 5 | 6
MazEF act | 6.5 | 0.3 | -4.0 | -2.8 | -0.8 | -27.2
SARS 3CLpro inh | -2.7 | -0.7 | -0.4 | 4.8 | . | 1.1
TcdB inh | 1.5 | . | . | . | -4.7 | 0.8
Rv3671c inh | 3.6 | -2.8 | 4.5 | -1.4 | -9.9 | -5.4
Anthrax LF inh2 | -1.3 | 0.7 | -1.3 | -4.2 | . | -2.9

#7 COc1ccc(OCc2nnc3n2N=C(c2ccc(C)cc2)CS3)cc1
#8 Oc1cc2c(c(Cl)c1O)CCNCC2c1ccccc1 (stereo not drawn)
#9 C=C(CN(C)C)C(=O)c1cc(OC)c(OC)cc1OC
#10 Cn1c(=O)n(C)c2cc(N3CCCCC3)c(NC(=O)c3ccccc3)cc21
#11 CCCC(=O)c1ccc(O)cc1O
#12 Cc1nc2ccccc2c(-c2ccccc2)c1CC(=O)O
#13 N#Cc1c(-c2ccc(Cl)cc2)c(-c2ccc(Cl)cc2)nn(CCO)c1=O

assay / entry | 7 | 8 | 9 | 10 | 11 | 12 | 13
MazEF act | 4.9 | 22.3 | 4.8 | 0.5 | . | 1.0 | 4.6
SARS 3CLpro inh | 1.9 | . | . | 0.0 | -0.2 | -0.5 | .
TcdB inh | 1.4 | 0.6 | -1.1 | 1.9 | 1.3 | . | 0.5
Rv3671c inh | -4.4 | 4.3 | . | 6.4 | . | -4.9 | .
Anthrax LF inh2 | -5.7 | -12.7 | 3.9 | -0.2 | -9.6 | -1.7 | -4.2

Another view of some results above:
10: Cn1c(=O)n(C)c2cc(N3CCCCC3)c(NC(=O)c3ccccc3)cc21
  MazEF act: 0.5	SARS 3CLpro inh: 0.0	TcdB inh: 1.9	Rv3671c inh: 6.4	Anthrax LF inh2: -0.2
11: CCCC(=O)c1ccc(O)cc1O
  MazEF act: .	SARS 3CLpro inh: -0.2	TcdB inh: 1.3	Rv3671c inh: .	Anthrax LF inh2: -9.6
12: Cc1nc2ccccc2c(-c2ccccc2)c1CC(=O)O
  MazEF act: 1.0	SARS 3CLpro inh: -0.5	TcdB inh: .	Rv3671c inh: -4.9	Anthrax LF inh2: -1.7
13: N#Cc1c(-c2ccc(Cl)cc2)c(-c2ccc(Cl)cc2)nn(CCO)c1=O
  MazEF act: 4.6	SARS 3CLpro inh: .	TcdB inh: 0.5	Rv3671c inh: .	Anthrax LF inh2: -4.2
